2A StopGo = lowers the luciferase signal of an FMDV 2A StopGo reporter | human cells with a luciferase reporter of 2A StopGo recoding; control for the full effect not named in the record | Potency, µM (highest dose often 57.9 µM), for inactives: top-dose signal change, negative = less light | 410,000 compounds, 1.2% hits | AID 1159524; active = well fitted falling curve with a large enough effect; inconclusive = small, poorly fitted or top-dose-only effect; inactive = no such curve, though single readings can be large or run the other way; tested in HEK293T cells; further: on the % scale 0 is the no-effect control and ±100 the full control effect; nearly all actives have a fitted effect of over 45% in size; luciferase light after 4 h
LASV entry inh = Lassa virus entry inhibition. Potency, µM (highest dose often 37.9 µM), without a hit: at the top dose activity change, negative = inhibition, usual class: inhibitors. Lassa virus pseudotype entry inhibition, cell reporter; control for the full effect not named in the record. 300,000 compounds, 1.2% hits. AID 540256; active means well fitted inhibition curve with a large enough effect; inconclusive means small, poorly fitted or top-dose-only effect, or effect the other way; inactive means flat fitted curve, though single readings scatter; tested in HEK293 cells; further: on the % scale 0 is the no-effect control and ±100 the full control effect; nearly all actives have a fitted effect of over 50% in size; luciferase read-out
Cruzain inh Det = cruzain (T. cruzi) inhibition with detergent | P25779 | purified cruzain, Z-FR-AMC fluorescence, 0.01% Triton | Potency, µM, for inactives: max response, negative = inhibition, usual class: inhibitors | 200,000 compounds, 0.43% hits | AID 1478;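 further: plate controls were neutral wells for no effect and buffer without enzyme for full effect; nearly all actives have a fitted effect of over 40% in size; top concentration of the series not given in the record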
Target sequence (P25779 123-467 limits assumed): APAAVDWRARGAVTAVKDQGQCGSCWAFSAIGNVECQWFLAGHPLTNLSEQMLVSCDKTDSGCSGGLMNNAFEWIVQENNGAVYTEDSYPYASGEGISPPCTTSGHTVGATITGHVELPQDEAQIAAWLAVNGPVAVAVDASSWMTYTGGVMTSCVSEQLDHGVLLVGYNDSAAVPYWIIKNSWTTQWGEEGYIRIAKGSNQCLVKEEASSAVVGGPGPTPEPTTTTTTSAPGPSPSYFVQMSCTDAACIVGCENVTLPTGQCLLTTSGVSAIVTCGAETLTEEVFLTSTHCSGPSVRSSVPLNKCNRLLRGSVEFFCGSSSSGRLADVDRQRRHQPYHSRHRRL
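Detergent-containing arm of a paired screen for aggregation-based inhibition: 0.01% Triton X-100 present. Cruzain at 1.5 nM cleaved 2 uM Z-FR-AMC at pH 5.5 with 5 mM DTT; AMC fluorescence gain over 60 s measured activity.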
Marburg entry inh = blocks Marburg virus binding to or entry into cells | Marburg virus pseudotyped entry inhibition, cell reporter; control for the full effect not named in the record; about a third of the inactives were read at about 46 µM | Potency, µM (highest dose often 37.8 µM), for the others: at the top dose activity change, negative = inhibition, hits mostly inhibitors | 300,000 compounds, 1.8% hits | AID 540276; active = well fitted inhibition curve with a large enough effect; inconclusive = small, poorly fitted or top-dose-only effect, or effect the other way; inactive = flat fitted curve, though single readings scatter; tested in HEK293 cells; about a fifth of its hits are not listed in these tables; further: on the % scale 0 is the no-effect control and ±100 the full control effect; luciferase read-out
SARS PLP yeast = blocks SARS-CoV papain-like protease in a yeast assay; S. cerevisiae expressing SARS-CoV PLpro, growth rescue; control for the full effect not named in the record; Potency, µM (top dose mostly 32.9 µM), without a hit: at the top dose activity, positive = growth rescue; 330,000 compounds, 0.19% hits; AID 485353; active means well fitted rising curve with a large enough effect; inconclusive means small, poorly fitted or top-dose-only effect; inactive means no such curve, though single readings can be large or run the other way; further: 0% is about no effect; nearly all actives have a fitted effect of over 55% in size; growth read by luminescence after 48 h
RE007 growth inh = less growth of the S. pombe RE007 Vpr strain; Potency, µM (highest dose often 92.2 µM), for the others: at the highest dose activity change, negative = less growth; S. pombe RE007 Vpr strain, BacTiter-Glo ATP luminescence, 24 h; control for the full effect not named in the record; AID 651644; 360,000 compounds, 0.21% hits; active = well fitted falling curve with a large enough effect; inconclusive = small, poorly fitted or top-dose-only effect; inactive = no such curve, though single readings can be large or run the other way;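 further: on the % scale 0 is the no-effect control and ±100 the full control effect; nearly all actives have a fitted effect of over 50% in size; the assay follows cell death caused by Vpr and the record does not say whether a fall means rescue or toxicity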
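Fission yeast strain RE007, carrying one chromosomally integrated HIV-1 vpr copy, was seeded at OD 0.01 in PMG+AL medium with 23 nL pinned compound. After 24 h at 30 °C and 99% humidity, viability was read by BacTiter-Glo luminescence.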
Cruzain inh noDet = blocks cruzain activity in detergent-free assay | P25779 | purified cruzain, Z-FR-AMC fluorescence, no detergent | Potency, µM, for inactives: max response, negative = inhibition, usual class: inhibitors | 200,000 compounds, 2.3% hits;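 further: plate controls were enzyme without inhibitor for no effect and buffer without enzyme for full effect; nearly all actives have a fitted effect of over 40% in size; top concentration of the series not given in the record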
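Purified cruzain at 1.5 nM, pre-incubated 15 min with compound at room temperature in 100 mM sodium acetate pH 5.5, 5 mM DTT, 0.00005% Triton X-100. Reaction started with 2 uM Z-FR-AMC; AMC fluorescence increase over 60 s gives rate.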
NS1 inh = blocks influenza NS1 protein function; AID 2326; Potency, µM (highest dose often 46.1 µM), for inactives: at the top dose activity, positive = more growth; S. cerevisiae slowed by influenza A NS1, growth recovery by OD600; 270,000 compounds, 0.4% hits; active means well fitted rising curve with a large enough effect; inconclusive means small, poorly fitted or top-dose-only effect; inactive means no such curve, though single readings can be large or run the other way; further: nearly all actives have a fitted effect of over 50% in size
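Recovery from NS1-induced slow growth read by OD600 in budding yeast switched to galactose assay medium (pH 6.0, -URA) at 1:100 dilution. Compound 23 nl per well; the matching strain lacking NS1 serves as control.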
* hit, by the source's call; u = inconclusive; x = no result given; & = joins results of further samples; [ ] = remark or other dose. Unless noted, the call rests on the fitted dose curve; in most records, active means well fitted curve in the direction sought with a large enough effect; inconclusive means small, poorly fitted or top-dose-only effect, or another doubt; inactive means no such curve, though single readings can be large; an effect the other way counts as inactive or inconclusive. Potency means the concentration at half of the fitted maximal effect.

Below each compound – Cruzain inh Det | Marburg entry inh | RE007 growth inh | 2A StopGo | NS1 inh | LASV entry inh | Cruzain inh noDet | SARS PLP yeast
OCCn1nc2c3ccccc3nc-2n(-c2ccccc2)c1=S
  3.9% | 17% | 13% | u | -11% | u | -11% | 14%
NC1=NC(c2ccccc2Cl)n2c(nc3ccccc32)N1 (stereo not drawn)
  -0.8% | -16% | 4% | -15% | -2% | 12% | -2% | u
O=C(COC(=O)CC1CCCC1)Nc1ccc(OC(F)F)cc1
  x | u | u | -5% | x | 0%[46.1 µM] | x | -5%
Cc1cc(-c2nnc(-c3ccccc3)c(-c3ccccc3)n2)c(C)o1
  -1.2% | u | 0% | -13% | 4% | -3% | -17% | -3%
Cc1cc2ncn(/N=C/c3ccc(-c4ccccc4)o3)c2cc1C
  -3.4% | -4% | -11% | 12% | 16% | 7% | -9% | 6%
O=[N+]([O-])c1cccc(S(=O)(=O)NCCCn2ccnc2)c1
  x | u | -23% | -11% | 12% | 2% | x | u
CCOC(=O)Cc1nnc(NC(=O)CSc2nnc3c4ccccc4n(C(C)C)c3n2)s1
  -6.7% | 0%&0%[46.1 µM] | -12% | -6% | u | -1% | 20% | -3%
CCOC(=O)C1C(c2cccnc2)NC(=O)NC1(O)C(F)(F)F (stereo not drawn)
  x | 2%[46.1 µM] | 11% | 2% | x | u | x | 0%
NC(=O)C1CCN(S(=O)(=O)c2cc3c4c(c2)CCN4C(=O)CC3)CC1
  x | 10% | -9% | -6% | x | 3% | x | -1%
CCCCn1nnc(NC(=S)NC(=O)c2cccs2)n1
  -6.1% | u | x | 41%[activator] | -7% | 20% | 10% | -61%
CSc1nnc(-c2ccc(Cl)cc2Cl)o1
  2.5% | 19% | u | 38%[activator] | -4% | 12% | -1% | 4%
CC(OC(=O)C1=Cc2ccccc2OC1)C(=O)NCC1CCCO1 (stereo not drawn)
  x | 2%[46.1 µM] | -5% | 4% | x | -25% | x | x
CCN(CC)CCNC(=O)c1cc2c(-c3ccc(Cl)cc3)nn(C)c2s1
  -19% | x | -9% | -37% | -6% | x | -1% | 0%
COC(=O)C1=C(C)N(c2ccc(Cl)cc2)/C(=C/c2cccs2)C1=O
  -4.5% | u | -14% | -30% | 7% | 3% | -2% | -18%
COCCOC(=O)C1=C(C)NC(=O)NC1c1c(F)cccc1Cl (stereo not drawn)
  -0.9% | 24% | -7% | x | 0% | 0% | -3% | -4%
CCOc1cc(/C=N/NC(=O)c2ccncc2)ccc1OS(C)(=O)=O
  -2.9% | u | -3% | 16% | 3% | -11% | -3% | 0%
Cc1nnc2sc(-c3cccc4ccccc34)nn12
  -2.2% | 2% | -10% | 13% | -99% | -4% | 5% | 23%
CCOc1cc(S(=O)(=O)NCCCN2CCOCC2)ccc1F
  x | -1% | 20% | -4% | 5% | -5% | x | 1%
CC(C)COc1cccc(C(=O)Nc2cc(S(=O)(=O)N3CCOCC3)ccc2N2CCCC2)c1
  x | -19% | 19% | -21% | x | u | x | x
O=C(CN1C(=O)c2cccc3cccc1c23)Nc1ccccc1C(=O)NCc1ccco1
  x | u | 5% | -24% | 1% | u | x | x
O=C(CCC(=O)NCCO)NCCO
  x | 25%[46.1 µM] | -5% | -6% | 7% | -4%[46.1 µM] | x | 0%
CCOC(=O)CNC(=O)OC1CCN2Cc3ccccc3N=C12 (stereo not drawn)
  x | -5% | -10% | 0% | 2% | 7% | x | -1%
CCn1c(O)c(/C=N/NC(=O)c2ccncc2)c(=O)n(CC)c1=S
  0.6% | 0% | 9% | 40%[activator] | 15% | 2% | -6% | u
Cc1ccc(NC(=O)C(C)SCc2ccccc2)cc1 (stereo not drawn)
  x | x | -14% | 23% | -7% | x | x | -1%
COCCSc1nnc(NC(=O)c2ccc(OC)c([N+](=O)[O-])c2)s1
  x | 15% | 7% | 0% | x | 9% | x | 0%
O=C(C1CC(=O)N(c2ccc(F)cc2)C1)N1CCCCCC1 (stereo not drawn)
  x | -4%[46.1 µM] | -16% | 10% | -22% | 21%[46.1 µM] | x | 0%
CSCCC(NS(=O)(=O)c1ccc(Cl)cc1)C(=O)OCc1cccc(Cl)c1 (stereo not drawn)
  -7.8% | u | -3% | 47%[activator] | -40% | u | 10% | -45%
CCC(OC(=O)c1cccs1)C(=O)NCc1ccco1 (stereo not drawn)
  0.0% | 15% | -5% | -14% | 17% | 20% | 4% | u
O=C(Nn1cnnc1)C(c1ccccc1)c1ccccc1
  4.8% | u | 8% | -8% | 0% | 2% | 8% | 2%
COc1ccc(-n2c(-c3ccccc3)nc(=S)c3c2CCCC3)cc1
  -4.3% | 0%[46.1 µM] | 13% | -23% | -1% | 6% | -7% | 4%
Cc1ccc(-c2nc(Nc3ccccc3)n[nH]2)cc1
  2.8% | u | -12% | 28% | -12% | u | u | -10%
COc1cccc(CNc2sc3c(c2C(=O)Nc2ccc(OC)cc2OC)CCC3)c1
  -3.6% | x | x | -9% | x | -2%[46.1 µM] | 7% | x
CC(NC(=O)Cc1ccccc1F)c1ccc(F)cc1 (stereo not drawn)
  x | u | -3% | 2% | x | 14% | x | -1%
CCCCNC(=O)CCC(=O)NNc1nc2ccccc2c2nc(C)nn12
  0.4%&-2.8% | 4%[46.1 µM] | 3% | -17%&-24% | u | 3%[46.1 µM] | 5%&5% | -1%
CCOC(=O)c1c(NC(C)=O)c2c3c(sc2n1Cc1nc(-c2cccc(C)c2)oc1C)CCCC3
  -1.5% | -5%[46.1 µM] | x | -13% | x | x | 4% | x
O=C(N[C@@H](Cc1ccccc1)C(=O)NCc1ccc(F)cc1)C1CCNCC1
  x | x | 0% | -14% | -2% | x | x | -2%
C=CCOc1ccc(CNc2nccs2)cc1OC
  0.7% | 8% | 8% | 7% | 5% | 7% | 24% | -8%
CCOC(=O)C1(C#N)Cc2ccccc2C1
  x | 2% | -6% | 2% | x | u | x | x
COc1cccc(CNCC(=O)Nc2ccc(N3CCOCC3)cc2)c1
  x | x | 0% | -17% | 4% | x | x | 1%
COc1ccc(-n2c(SCC(=O)NNC(=O)c3ccccc3C)nnc2-c2ccncc2)cc1
  4.1% | -4% | 1% | 4% | 17% | -2% | -9% | -4%
CCCC(C)c1nnc(NC(=O)COc2ccc3c(c2)OCO3)s1 (stereo not drawn)
  x | u | 1% | -11% | 13% | -5% | x | 9%
Cc1ccc(NC(=O)CN(C)C(=O)CSc2ccccc2F)cc1
  x | 24% | 23% | 41%[activator] | x | -24% | x | -3%
Nc1nc2nc(-c3ccc(F)cc3)cc(C(F)(F)F)n2n1
  x | 2% | -6% | 4% | x | 1% | x | 0%
Cc1cc(Nc2ccc(C)c(Br)c2)n2nc(C)nc2n1
  -2.9% | x | 6% | -19% | -36% | x | -12% | -2%
COc1ccc(-c2cc(CCCC(=O)N3CCN(c4ccc(OC)cc4)CC3)no2)cc1
  4.0% | 3% | 6% | u | 5% | x | -2% | -6%

Complete entries as entered above. Order of screens: Cruzain inh Det, Marburg entry inh, RE007 growth inh, 2A StopGo, NS1 inh, LASV entry inh, Cruzain inh noDet, SARS PLP yeast
CCOC(=O)c1c(NC(C)=O)c2c3c(sc2n1Cc1nc(-c2cccc(C)c2)oc1C)CCCC3 across the screens: -1.5%, -5%[46.1 µM], x, -13%, x, x, 4%, x
COc1ccc(-c2cc(CCCC(=O)N3CCN(c4ccc(OC)cc4)CC3)no2)cc1 across the screens: 4.0%, 3%, 6%, u, 5%, x, -2%, -6%

Further results
Below each compound – Cruzain inh Det | Marburg entry inh | RE007 growth inh | 2A StopGo | NS1 inh | LASV entry inh | Cruzain inh noDet | SARS PLP yeast
COc1cccc(CNC(=O)CCC2CCCN(C(=O)c3cc(C4CC4)[nH]n3)C2)c1 (stereo not drawn)
  x | x | -4% | -2% | -1% | x | x | 1%
CCOC(=O)c1ccc(NC(=O)C2CCN(S(=O)(=O)Cc3ccccc3)CC2)cc1
  -11% | 7%[46.1 µM] | x | -10% | x | -6%[46.1 µM] | -4% | x
O=[N+]([O-])c1ccc(CNCCc2ccccc2)cc1
  x | x | 3% | 6% | -2% | x | x | 2%
Cc1cccc(Cn2cc(C=O)c3ccccc32)c1
  x | u | 20% | -18% | u | u | x | 0%
Cc1ccc(CN2CCN(CC(=O)NCc3ccccc3Cl)C2=O)cc1
  -3.4% | 1%[46.1 µM] | x | 11% | x | u | -9% | x
CCc1ccc(N2CC(C)Cn3c2nc2c3c(=O)n(CC(=O)O)c(=O)n2C)cc1 (stereo not drawn)
  -3.4% | -5%[46.1 µM] | x | -8% | x | -1%[46.1 µM] | 15% | x
O=C1C(=Cc2ccccc2)N2CCC1CC2
  x | 6%[46.1 µM] | -17% | 3% | x | 17%[46.1 µM] | x | x
CC(O)c1nc2ccccc2n1Cc1ccc([N+](=O)[O-])cc1 (stereo not drawn)
  -4.5% | 6% | x | -24% | -6% | 9% | -1% | -16%
COc1ccc(CCNC(=O)CN2C(=O)COc3ccc(S(=O)(=O)N4CCCC4)cc32)c(OC)c1
  -2.0% | u | -6% | 3%&2% | -12% | -6%[46.1 µM] | -1% | 0%
COc1cc(Br)cc(CN2CCN(c3ncccn3)CC2)c1O
  x | x | 0% | -18% | 9% | x | x | 3%
COc1cccc(C2/C(=C(/O)c3ccccc3)C(=O)C(=O)N2CCCC(=O)O)c1 (stereo not drawn)
  -5.8% | 12% | 8% | 21% | -4% | 1% | -4% | -9%
O=[N+]([O-])c1ccc(CN2CCN(c3ccc([N+](=O)[O-])cc3)CC2)cc1
  x | -19% | 3% | 0% | -2% | u | x | -1%
COc1ccc(-c2nc(SCC(=O)c3ccc(OC)c(Br)c3)n[nH]2)cc1
  -2.3% | -8%[46.1 µM] | x | -10% | x | 10%[46.1 µM] | 3% | x
Cc1ccc(S(=O)(=O)N2CCOC2CNC(=O)C(=O)NCCc2c[nH]c3ccccc23)cc1 (stereo not drawn)
  x | x | -10% | u | 0% | x | x | 0%

Screening data from PubChem BioAssay.
